# Screening results deposited in PubChem by National Center for Advancing Translational Sciences (NCATS).
# HPGD block = inhibitors of human 15-hydroxyprostaglandin dehydrogenase (HPGD); P15428; Potency, µM, without a hit: at the highest dose activity change, negative = inhibition, actives largely listed as inhibitors; hit rate 4.3% among 150,000; purified HPGD, NADH fluorescence kinetic, PGE2 substrate; active = well fitted inhibition curve with a large enough effect (not every such curve was filed as active); inconclusive = small, poorly fitted or top-dose-only effect, or another doubt; inactive = no such curve, though single readings can be large or run the other way;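 note: top concentration of the series not given in the record; plate controls included wells without enzyme; inactives centre near -10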
# Target sequence (P15428 whole entry, looked up): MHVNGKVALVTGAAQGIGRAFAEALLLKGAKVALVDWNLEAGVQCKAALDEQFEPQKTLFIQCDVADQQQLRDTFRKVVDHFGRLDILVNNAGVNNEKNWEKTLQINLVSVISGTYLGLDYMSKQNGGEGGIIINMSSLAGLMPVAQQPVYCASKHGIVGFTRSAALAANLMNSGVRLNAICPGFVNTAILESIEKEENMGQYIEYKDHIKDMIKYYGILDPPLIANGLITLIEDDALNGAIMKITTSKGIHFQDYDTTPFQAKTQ
#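 20 nM HPGD preincubated 15 min at room temperature with compound in 50 mM Tris-HCl pH 8, 0.01% Tween 20. Started with 1 mM NAD+ and 30 uM prostaglandin E2; NADH fluorescence (360/450 nm) read 5 times over 30-s intervals, last minus first.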
# The depositor's hits bear a star; ? = inconclusive. % is set by controls: 0 for no effect and ±100 for the full control effect; potency is the fitted concentration of half-maximal effect. These rows are one share of the data (hit frequency here may not be typical).
# The first 3 compounds, to show the layout:
HPGD block	compound
-6%	CCCCn1c(=O)c2[nH]c(C34CC5CC(CC3C5)C4)nc2n(CCCO)c1=O
?	COc1ccc2c(c1OC)C(=O)N1C(C(=O)O)Cc3c([nH]c4ccccc34)C21 (configuration not stated)
-7%	Cc1ccc2c(SCC(=O)NCc3ccco3)nc(-c3ccc(F)cc3)nc2c1

# This part in full, from the first entry:
HPGD block	compound
-6%	CCCCn1c(=O)c2[nH]c(C34CC5CC(CC3C5)C4)nc2n(CCCO)c1=O
?	COc1ccc2c(c1OC)C(=O)N1C(C(=O)O)Cc3c([nH]c4ccccc34)C21 (configuration not stated)
-7%	Cc1ccc2c(SCC(=O)NCc3ccco3)nc(-c3ccc(F)cc3)nc2c1
-5%	Cc1[nH]c(=O)[nH]c(=O)c1S(=O)(=O)N1c2ccc(F)cc2CCC1C (configuration not stated)
-4%	CC(=O)N1CCCC1C(=O)O (configuration not stated)
-16%	O=C(O)c1cccc(S(=O)(=O)Nc2ccc3c(c2)OCO3)c1
-17%	Cc1ccc(C)c(NC(=O)c2cc3c([nH]c4ccccc43)c(C)n2)c1
-8%	CCOC(=O)COc1cc(Br)c(C2NC(=O)NC(C)=C2C(C)=O)cc1OCC (configuration not stated)
?	O=c1cc(CO)oc(C(Nc2ccccn2)c2ccsc2)c1O (configuration not stated)
-16%	COc1ccc(N=c2cc(-c3ccc(OC)cc3)oc3ccccc23)cc1
-9%	Cc1ccc(C)c(NS(=O)(=O)c2ccc(OCC(=O)NCc3ccco3)cc2)c1
-16%	O=c1c2ccccc2nc(SCc2ccc([N+](=O)[O-])cc2)n1-c1ccc(Cl)cc1
-5%	O=C(c1oc(=O)c2ccccc2c1-c1ccccc1)N1CCC(O)CC1
-1%	O=C(NCCc1ccccc1)c1c(F)c(F)c(F)c(F)c1F
-25%	Cc1cc(C(=O)NC(C)C2CCCO2)cs1 (configuration not stated)
?	Cc1sc2nc3c(C(=O)N4CCN(c5ccccn5)CC4)cccn3c(=O)c2c1C
-19%	CN(C)C(=O)c1ccc(-n2nc(C(F)(F)F)c3c2CCCC3)cc1
-4%	COc1ccccc1CN1CC(C(=O)NC2CCCCC2)CC1=O (configuration not stated)
-15%	COc1ccc(Cl)cc1NC(=O)N(C)Cc1c(C)nn(C)c1C
?	COc1ccc(C(=O)/C=C/Nc2ccc(S(=O)(=O)Nc3cccc(C(C)=O)c3)cc2)cc1
-16%	CC(=O)c1sc(NC(=O)c2cc3c(C)nn(-c4ccccc4)c3s2)nc1C
-15%	Cc1ccc(/C(N)=N/OC(=O)N2CCOCC2)cc1
-15%	C/C(N)=C(/C#N)C(=O)COC(=O)c1cc(S(=O)(=O)N2CCCCC2)ccc1C
-19%	CCOC(=O)CC(=O)Nc1c(C)cc(C)cc1C
-24%	Cc1cccc2cc(CN(CC3CCCO3)C(=O)NC3CCCCC3)c(=O)[nH]c12 (configuration not stated)
-11%	O=C1NCCCC2c3cc(O)c4ccccc4c3OC12N1CCCCC1 (configuration not stated)
-16%	O=C(Cn1nnc(-c2ccccc2NC(=O)c2ccccc2F)n1)NCc1ccco1
-8%	O=C(Nc1nnc(C2CCCO2)s1)c1cccs1 (configuration not stated)
-4%	CCC1CC(CSc2ncn[nH]2)OC1=O (configuration not stated)
-7%	COc1ccc(CCN2C(=O)C3C4CCC(C4=C(C)C)C3C2=O)cc1OC (configuration not stated)
-10%	C=CCOc1nc2c(c(=O)n(C)c(=O)n2C)n1C
-4%	CC(C)(C)C(=O)CSc1nc2c(c(-c3cccs3)c1C#N)CCC2
-12%	COc1ccccc1COCC(O)CN(Cc1ccco1)Cc1ccccc1O (configuration not stated)
-9%	COC(=O)c1c(C)nc2ccccc2c1C(=O)O
-1%	OCCn1c(Cl)nc2ccccc21
-11%	O=C(COc1cccc2cccnc12)NCC(F)(F)F
-21%	O=C(Cn1[nH]c(=O)c2ccccc2c1=O)N1CC=C(c2ccccc2)CC1
-8%	Cc1cccc(N(C(=O)CCC(=O)Nc2ccccn2)C(C(=O)NC(C)C)c2ccc(O)cc2)c1 (configuration not stated)
-1%	Nc1ccc(N(S(=O)(=O)c2ccccc2)S(=O)(=O)c2ccccc2)c(Cl)c1
?	CCN(CC)c1ccc(-n2cc3c(=O)n(C)c(=O)n(C)c3c2)cc1
-7%	Cc1ccccc1NC(=O)C1Cc2ccccc2C(=O)O1 (configuration not stated)
5%	CN1C(=O)c2ccc(S(=O)(=O)c3ccc(C(=O)O)cc3)cc2C1=O
-4%	CC(=O)Nc1ccc(S(=O)(=O)NCCN2CCOCC2)cc1
-12%	O=C(Nc1ccc(Cl)c(Cl)c1)O/N=C/c1ccncc1
0%	COc1ccc(NC(=O)CCC(=O)OCc2ccc(Br)cc2)cc1
-16%	CC(C)=CCC/C(C)=C/CC/C(C)=N/O
-15%	CCc1ccccc1NC(=O)C1C(c2ccccc2)C1(Cl)Cl (configuration not stated)
-19%	COc1ccc(-n2c(SCC(N)=O)nc3sc4c(c3c2=O)CCN(C)C4)cc1
-12%	Clc1cccc(Cl)c1CNC1CCCC1
-9%	COc1ccc(OC)c(NC(=O)Cn2cc(C#N)c3cc(Br)ccc32)c1
-11%	Cc1cc2c(c(C)c1Br)C(c1ccc3c(c1)OCO3)CC(=O)O2 (configuration not stated)
-10%	CN1CCCC(OC(=O)c2ccc3c(c2)OCCO3)C1 (configuration not stated)
-12%	Cc1cc2cc(C)c3nnc(SCC(=O)Nc4ccc(S(=O)(=O)N5CCCCC5C)cc4)n3c2cc1C (configuration not stated)
-21%	Cc1nn(C)c(-c2n[nH]c(=S)n2-c2ccccc2)c1Cl
-6%	Cc1cc(C)n(-c2nnc(C)n2/N=C/c2ccccc2O)n1
?	CCOC(=O)c1snc(-c2ccc(F)cc2)c1N
-10%	CCCOc1ccccc1N/C(=N/c1nc(C)cc(C)n1)NC(=O)Nc1ccc(Cl)cc1
-12%	CSc1ccccc1NC(=O)CN(c1ccccc1Br)S(C)(=O)=O
-12%	CCC1Oc2ccc(C)cc2N(CC(=O)N(Cc2ccncc2)Cc2ccco2)C1=O (configuration not stated)
?	O=C(O)Cc1ccc2c(c1)N(S(=O)(=O)c1cccc(C(F)(F)F)c1)CC(C(=O)O)O2 (configuration not stated)

# Additional compounds
HPGD block	compound
-3%	Cc1nn(C(C)C(=O)N2CCc3ccccc32)c(C)c1[N+](=O)[O-] (configuration not stated)
-20%	CCc1nc(SCC(=O)N2CCCC2)c2ccccc2n1
-12%	CCNS(=O)(=O)c1ccc(NS(=O)(=O)c2cc(C)ccc2C)cc1
-10%	Cc1nc(C(F)(F)F)c(C(=O)NC(=O)Nc2ccc(OC(F)(F)F)cc2)s1
-8%	COC(=O)c1ccc(NC(=O)C23CCC(C)(C(=O)O2)C3(C)C)cc1 (configuration not stated)
?	CCc1c(C)nc2cc(-c3ccc(OC)c(OC)c3)nn2c1N1CCC(C)CC1
-9%	O=C(NCCn1cc(SCc2ccccc2)c2ccccc21)c1ccccc1F
-24%	O=C(OCc1cccs1)c1ccccc1NS(=O)(=O)c1ccc2c(c1)OCCO2
0%	COc1ccc(OC)c(-c2nc(C)sc2CC(=O)O)c1
?	COc1ccc(N=c2oc3cc(O)ccc3cc2C(=O)NCC2CCCO2)c(OC)c1 (configuration not stated)
0%	O=C(NCCCn1ccnc1)/C(=C\c1cccnc1)NC(=O)c1ccccc1Br
-15%	CCOC(=O)c1c(NC(=O)CSc2nnc3c(n2)[nH]c2ccc(F)cc23)sc(C(C)=O)c1C
3%	Cc1cc(C)n(-c2nc(N(C)C)nc(N(C)C)n2)n1
-5%	O=C(NCc1ccc(Cl)c(Cl)c1)c1cccnc1
-12%	CC(=O)c1c(C)[nH]c2ccccc2c1=O

# Entries above with a CF3 group (four):
HPGD block	compound
-19%	CN(C)C(=O)c1ccc(-n2nc(C(F)(F)F)c3c2CCCC3)cc1
-11%	O=C(COc1cccc2cccnc12)NCC(F)(F)F
?	O=C(O)Cc1ccc2c(c1)N(S(=O)(=O)c1cccc(C(F)(F)F)c1)CC(C(=O)O)O2 (configuration not stated)
-10%	Cc1nc(C(F)(F)F)c(C(=O)NC(=O)Nc2ccc(OC(F)(F)F)cc2)s1

# The listing continues:
HPGD block	compound
-16%	CSc1ccccc1NC(=O)COc1ccc(Cl)cc1C
-7%	Cc1ccc(NC(=O)CN2C(=O)NC(Cc3c[nH]c4ccccc34)C2=O)cc1S(=O)(=O)N1CCCCC1 (configuration not stated)
0%	O=C(O)CCC(=O)Nc1ccc(F)cc1
2%	Cc1c(Br)c([N+](=O)[O-])nn1CC(=O)NCc1ccco1
1%	O=c1[nH]c(=O)n([C@@H]2O[C@H](CO)[C@@H](O)[C@H]2O)cc1F
-6%	c1ccc(Cc2cc(-c3ccccc3)on2)cc1
?	O=c1cc(-c2ccccc2O)oc2cc(O)ccc12
-17%	C/C(=N\NC(=O)CNc1cccc2ccccc12)c1ccc(Br)s1
-10%	O=C(NCCCCc1ccccc1)C1CC(c2ccc([N+](=O)[O-])cc2)=NO1 (configuration not stated)
-7%	Cc1ccc(OCC(=O)Nc2ccc3c4c(cccc24)CC3)c(C)c1
-12%	O=C(NCCCN1CCOCC1)c1ccc(CS(=O)(=O)c2c(Cl)cccc2Cl)o1
23%	Cc1cccc2nc(-c3cccc(NC(=O)c4ccc(Cl)cc4)c3)cn12
-3%	CC(C)CCNC(=O)Cn1c(=O)oc2cc(S(=O)(=O)N3CCc4ccccc43)ccc21
-1%	COc1ccc(C2=CC3=C(Br)C(=O)C(C)(O)C(=O)C3=CO2)cc1 (configuration not stated)
?	O=C(Nc1nc2ccccc2n1Cc1ccc(Cl)cc1)c1ccco1
-13%	Cc1ccc(NC(=O)c2ccco2)cc1C
?	Cc1cc(-c2cccnc2)c(C#N)c(SCC#N)n1
0%	CCOC(=O)c1ccc(NC(=O)Cn2cc3c(n2)CCC(C)C3)cc1 (configuration not stated)
-27%	COc1ccc(-c2nnc(SCc3nc4ccccc4s3)n2C(C)C)cc1
-9%	CCCCCCCC/C=C\CCCCCCCCOC[C@H](COP(=O)([O-])OCC[N+](C)(C)C)OC(C)=O
-3%	O=C(CN(C(=O)c1ccco1)c1cccc(F)c1)NCc1ccc(F)cc1
-6%	Oc1cccc(CN2CCCCC2)c1
?	O=C(CN1CCN(C2CCCCC2)CC1)c1ccc2cc[nH]c2c1
-3%	CN1CCN(c2ccccc2NC(=O)c2ccc(-c3cccc([N+](=O)[O-])c3)o2)CC1
16µM*	CCN(CC)S(=O)(=O)c1cccc(-c2n[nH]c(=S)n2/N=C/c2ccc(OC)cc2)c1
-13%	O=C(NCC1CCCO1)c1cccnc1Nc1ccccc1F (configuration not stated)
-1%	CC(C)NC(=O)NC(=O)COC(=O)c1ccc(F)cc1F
-10%	O=C(c1ccco1)N1CCN(CCCCOc2cccc3ccccc23)CC1
-3%	CC1CCN(C(=O)C2Cc3ccccc3CN2S(=O)(=O)c2ccc(F)cc2)CC1 (configuration not stated)
-9%	CCCCNS(=O)(=O)c1ccc2nc(-c3cccnc3)cc(C(=O)NC(C)C)c2c1
7%	CCCCNCCCCOc1ccccc1
-2%	COc1ccc(C(=O)N2CCC(N3CCN(c4ccccc4)CC3)CC2)cc1
-9%	CCC(=O)N1CCc2cc(S(=O)(=O)NC(Cc3ccccc3)C(=O)NC3CCCCC3)ccc21 (configuration not stated)
-13%	O=C(NCc1cccnc1)c1ccc(-c2ccccc2[N+](=O)[O-])o1
0%	Cc1[nH]c(=O)[nH]c(=O)c1NS(=O)(=O)c1ccccc1
-13%	C=CCOc1cccc(CNn2cn[nH]c2=S)c1
28µM*	Cc1nc(SCC(=O)Nc2nc3ccccc3s2)c(C#N)c(C)c1C
-19%	Cc1ccc2cc(COC(=O)c3ccncc3)c(=O)[nH]c2c1
?	O=C(CSc1nnc(-c2ccco2)o1)c1ccccc1
-4%	COC(=O)CCC(=O)Nc1nnc(C(F)(F)F)s1
-2%	CC1(C)Cc2ccccc2C(=NCCCCCC(=O)O)N1
-26%	COc1ccc(C(=O)/C=C\N2CCOCC2)cc1
-7%	COc1ccc(C2NC3=C(CCC3)C3(C#N)C(OC)(OC)N=C(N)C23C#N)cc1 (configuration not stated)
-17%	CSc1nnc(C)c(=O)n1COC(=O)c1ccc(S(=O)(=O)N(C)C)cc1
-7%	Cc1cc(C)nc(NS(=O)(=O)c2ccc(NC(=O)c3ccc(S(=O)(=O)N4CCOCC4)cc3)cc2)n1

# Part of the list above, set out differently.
compound | HPGD block
O=C(NCc1cccnc1)c1ccc(-c2ccccc2[N+](=O)[O-])o1 | -13%
Cc1[nH]c(=O)[nH]c(=O)c1NS(=O)(=O)c1ccccc1 | 0%
C=CCOc1cccc(CNn2cn[nH]c2=S)c1 | -13%

# (further entries)
HPGD block	compound
22µM*	C=CCn1c(C)cc(C(=O)COC(=O)c2ccc3c(c2)NC(=O)CS3)c1C
-21%	COc1cccc(/C=N/c2sc(Cc3ccccc3)c(C)c2C(N)=O)c1O
0%	CCc1ccccc1S(=O)(=O)Cc1ccc(C(=O)NCC2CCCO2)o1 (configuration not stated)
-8%	CC(=O)Nc1cc2c(cc1NC(=O)c1cnccn1)OCCO2
-4%	COc1ccc(NS(=O)(=O)c2ccc(S(=O)(=O)N3CCCC3)cc2)cc1
-4%	Cc1ccc(-n2ncc3c2ncn2c(-c4ccncc4)nnc32)cc1
-10%	Cn1cccc1/C=N/NC(=O)c1sc2ccccc2c1Cl
-10%	Cc1ccc(C(O)CN2C3=NCCCN3c3ccccc32)cc1 (configuration not stated)
-18%	COCCOC(=O)c1c(C)n(C)c2ccc(OC(=O)N3CCOCC3)cc12
4µM*	CCOC(=O)c1sc(N)c(C(=O)Nc2ccc(C)cc2C)c1C
-19%	OCCN1CCN(c2nc(-c3ccccc3)c3cc(Cl)ccc3n2)CC1
